PKD1 kinase inh – inhibitors of human PKD1 kinase, biochemical, fluorescence polarization | Serine/threonine-protein kinase D1 (Homo sapiens), Q15139 | PKD1 kinase fluorescence polarization assay | inhibition, %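 (about 10 µM by stock and volumes)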 | 200,000 tested, 0.056% active;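 active = inhibition of 50% or more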;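 note: controls were vehicle for no effect and a reference inhibitor for full effect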
Insulin prom inh – inhibitors of insulin promoter-driven GFP, primary screen, imaging, TRM-6 cells (human fetal islet line), eGFP reporter, cell count; reporter expression induced with tamoxifen; inhibition, % at 2 µM; 130,000 tested, 0.9% active;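 active = inhibition above the mean plus 3 SD, with well images judged a real hit on visual review, cut at about 60% in these data, passing the limit was not always enough; inconclusive = inhibition over the cutoff but images rejected on review; inactive = inhibition not above the cutoff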
HSV augment – enhancers of HSV replication in host cells, fold increase, host cell viability | HSV replication augmentation in cells | maximum fold increase | 220,000 tested, 0.005% active | AID 1956, 2009;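 active = peak rise of 1.5-fold or more in the series; inconclusive = self-fluorescent or not available for retest; tested in PC3 cells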;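 note: first round at 10 µM; read as green reporter fluorescence; hits show the peak of a series up to 25 µM; 1 = signal of infected wells without compound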
GALR2 agonist – GALR2 receptor agonists, primary screen, cell-based; Galanin receptor type 2 (Homo sapiens), O43603; GALR2-expressing cells, agonist activation read-out; 140,000 tested, 0.48% active; activation, %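 (tested at 5 µM)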;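 active = above mean plus 3 SD of all compounds, about 5% in these data, not always enough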;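 note: 0% = vehicle buffer wells and 100% = reference agonist at full effect; tested in CHO reporter cells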
Target sequence (O43603 whole entry, looked up): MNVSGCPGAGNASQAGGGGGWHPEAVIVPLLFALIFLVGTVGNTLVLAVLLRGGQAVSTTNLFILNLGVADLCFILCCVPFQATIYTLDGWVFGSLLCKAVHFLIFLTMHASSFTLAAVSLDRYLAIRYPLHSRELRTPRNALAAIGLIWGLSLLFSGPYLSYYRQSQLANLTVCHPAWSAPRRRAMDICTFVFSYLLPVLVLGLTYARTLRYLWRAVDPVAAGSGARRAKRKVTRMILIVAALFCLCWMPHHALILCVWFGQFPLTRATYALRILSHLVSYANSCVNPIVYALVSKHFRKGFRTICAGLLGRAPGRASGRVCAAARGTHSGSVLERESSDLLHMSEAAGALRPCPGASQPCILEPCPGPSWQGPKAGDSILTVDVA
RGS16-Gao – modulators of RGS16 binding to Galphao, primary screen, biochemical, human proteins, multiplexed bead flow cytometry; 220,000 tested, 0.38% active; binding response (% of control), % at 10 µM; bead-based flow cytometry RGS16-Galphao binding, fluorescence; actives lie on both sides;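 active = below 25% or above 175%, edge rows of some plates excepted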;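 note: Galphao activated by GDP with aluminum fluoride before binding; 100% = wells without compound and 0% = beads without RGS; some results beyond the cut were filed as inactive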
Target sequence (O15492 whole entry, looked up): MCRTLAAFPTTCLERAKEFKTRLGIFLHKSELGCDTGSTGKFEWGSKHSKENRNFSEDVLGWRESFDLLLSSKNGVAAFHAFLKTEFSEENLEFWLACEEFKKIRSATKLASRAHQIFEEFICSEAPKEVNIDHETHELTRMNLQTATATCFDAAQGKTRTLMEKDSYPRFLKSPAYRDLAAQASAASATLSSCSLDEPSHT
Target sequence (P09471 whole entry, looked up): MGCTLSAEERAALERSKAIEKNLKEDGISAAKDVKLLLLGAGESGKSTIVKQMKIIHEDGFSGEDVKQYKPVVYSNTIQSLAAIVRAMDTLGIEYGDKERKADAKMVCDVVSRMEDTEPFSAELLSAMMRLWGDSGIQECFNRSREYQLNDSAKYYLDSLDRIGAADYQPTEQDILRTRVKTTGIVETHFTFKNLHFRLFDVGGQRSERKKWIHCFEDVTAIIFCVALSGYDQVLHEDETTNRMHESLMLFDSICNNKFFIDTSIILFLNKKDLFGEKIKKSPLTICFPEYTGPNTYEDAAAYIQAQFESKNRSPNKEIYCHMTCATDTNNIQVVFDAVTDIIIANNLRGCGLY
Insulin prom inh cell count – also measured in Insulin prom inh; calls as there; normalized cell count, %; measured here: cell count, toxicity; reference of the scale not given here;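 cells exposed to compound for 48 h; stained nuclei by imaging scaled within each plate; lower means fewer cells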
HSV augment primary fold – recorded beside HSV augment, whose call it bears; fold increase; compound at 10 µM; measured here: primary screen fold increase 10 uM; tested in PC3 cells;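 GFP signal in the first replicate; 1 = infected wells without compound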
Active calls of the source: *; i = inactive; ? = inconclusive; · = no result given.

SMILES	PKD1 kinase inh	Insulin prom inh	Insulin prom inh cell count	HSV augment	HSV augment primary fold	GALR2 agonist	RGS16-Gao
Cc1csc(NC(=O)c2cc3c(s2)CCCCC3)n1	-6	8	58	i	1.1	-0.6	101
COc1ccc(CC(=O)NCc2ccc3c(c2)OCO3)cc1	4	35	67	i	0.64	-1.3	105
O=C1Nc2ccc(S(=O)(=O)N3CCOCC3)c3cccc1c23	-2	-267	65	i	1.1	-0.7	274
COc1ccc(-c2noc(CCC(=O)NCCCN3CCN(c4ccc(F)cc4)CC3)n2)cc1	-7	-93	63	i	0.93	·	103
CCNC(=S)NNC(=O)c1cc(-c2cc(C)ccc2C)nc2ccccc12	-1	·	·	i	1.1	-1.9	98
CCCCn1nc2cc(C(=O)NC[C@@H]3CCCO3)ccc2c1OCC	6	·	·	i	0.72	-3.2	97
COc1ccccc1N1CCN(C2CCN(S(=O)(=O)c3ccc(NC(C)=O)cc3)CC2)CC1	-1	·	·	i	1	·	100
CN(C)/C=C(\C#N)C(=O)Nc1ccc(O)cc1F	9	·	·	i	1.3	·	101
CC1SC(c2ccccc2)N(CC(O)c2ccc([N+](=O)[O-])cc2)C1=O (stereo unspecified)	1	-12	184	i	1	·	100
Cc1cccc(OCCCC(=O)Nc2ccc(S(=O)(=O)Nc3onc(C)c3C)cc2)c1C	-13	i	61	i	0.96	-0.7	109
Cc1cccc(-n2c(O)c(C=Nc3ccccc3O)c3ccccc3c2=O)n1	·	·	·	i	1.1	·	119
Cc1cc(=O)oc2cc(OC(=O)c3cncc(Br)c3)ccc12	-5	0	79	i	0.98	·	97
c1ccc(Nc2nc(-c3cccnc3)cs2)nc1	17	0	113	i	0.97	-3.9	96
COc1ccc(N=c2scc(-c3ccc(S(=O)(=O)N4CCOCC4)cc3)n2CCCO)cc1	-18	·	·	i	1	-0.7	105
O=C(CN1C(=O)CCC1=O)Nc1cccc2c1C(=O)NC2=O	-2	·	·	i	0.66	·	98
O=C1NCCN(Cc2ccc(Cl)c(F)c2)C1CC(=O)N1CCCCO1 (stereo unspecified)	5	-5	143	i	0.91	·	105
CCOc1ccc(/C=N/Nc2ccc(C(F)(F)F)cc2[N+](=O)[O-])cc1O	-4	71*	123*	i	0.75	-2.4	106
Cc1cc(C)c(S(=O)(=O)c2cccc(Cl)c2)c(Cl)n1	-2	-21	48	·	·	·	186
CCN1CCN(C(=O)CCNC(=O)Cn2ccc3ccccc3c2=O)CC1	1	-37	77	i	0.94	-2.8	104
CSc1nc(N)nc(SCC(=O)OC(C)C)c1C#N	-38	53	70	i	0.78	-0.8	103
COc1ccc(NC(=O)c2cnn3c(C(F)(F)F)cc(-c4ccco4)nc23)cc1OC	-9	0	107	i	1.1	1.4	108
CN(c1ncc(C(F)(F)F)cc1Cl)n1cc(C(N)=O)c2ccccc2c1=O	6	-6	75	i	0.98	-1.7	100
Cc1cccc(NC(=O)CCCN2C(=O)c3cccc4cccc(c34)C2=O)c1	0	·	·	i	0.9	0.0	99
CCOc1ccc2c(c1)[nH]c(=S)n2C	·	·	·	i	1	·	84
CCCc1cc2c(cc1NC(=O)c1ccccc1C)OCO2	-1	·	·	i	1.1	0.2	102
Cc1cnc2c(C(=O)O)cnn2c1	3	21	119	i	0.88	·	139
O=C(/C=C/c1cc([N+](=O)[O-])ccc1OC(F)F)Nc1cccc([N+](=O)[O-])c1	·	·	·	i	0.8	·	104
CCCOc1ccc(-c2nn(-c3ccccc3)cc2/C=C2\SC(=S)N(C3CCS(=O)(=O)C3)C2=O)cc1 (stereo unspecified)	-9	24	41	i	0.89	-0.5	112
COC(=O)C(C)Oc1cc(OC(C)C(=O)OC)c2c(C)c(Cl)c(=O)oc2c1 (stereo unspecified)	0	7	107	i	0.94	·	98
CCOc1ccc(-c2nn[nH]n2)cc1	0	-39	182	i	0.88	-2.0	106
Cc1ccc(C)c(CN2C(=O)c3ccccc3S(=O)c3ccc(C(=O)N4CCN(c5ccccn5)CC4)cc32)c1 (stereo unspecified)	-11	-18	174	i	0.73	·	102
Cc1ccc(C(=O)N2C(=O)C(c3ccccc3)Oc3ccccc32)cc1 (stereo unspecified)	·	·	·	i	1.1	·	86
CC(C)C(=O)N1CCN(c2ccc(NC(=O)c3ccc4c(c3)OCCO4)cc2)CC1	-5	·	·	i	0.99	·	100
COCCn1nnnc1C(c1cc2cc(C)ccc2[nH]c1=O)N1CCc2ccccc21 (stereo unspecified)	3	·	·	i	0.96	-0.9	104
Cc1ccc2oc3c(c(=O)c2c1)C(c1cccc(O)c1)N(c1ccccn1)C3=O (stereo unspecified)	-13	·	·	i	0.81	1.2	103
Cc1nc(Nc2ccc(Cl)cc2Cl)sc1C(=O)Nc1ccccc1	7	-18	159	i	0.87	-1.6	97
Cc1ccccc1Cn1nc(C)c(NC(=O)C2(C)CC2(Cl)Cl)c1C (stereo unspecified)	1	8	133	i	0.92	0.1	101
COCCn1c(-c2ccccc2F)n[nH]c1=S	-7	25	96	i	1	-0.5	103
COc1cc(Cn2c(-c3nonc3N)nc3ccccc32)ccc1C	-4	-284	34	i	0.89	-0.7	100
O=C(O)c1ccc(-n2cccc2/C=C2/NC(=O)N(c3ccccc3)C2=O)cc1	·	·	·	i	0.95	·	98
COc1ccccc1S(=O)(=O)CC(O)COc1ccc(F)cc1Cl (stereo unspecified)	-5	-26	80	i	0.95	·	104
CCCC(=O)Nc1nc(-c2ccc(Cl)s2)cs1	-3	·	·	i	1	·	95
CCc1ccc(N(C(=O)CNC(=O)c2cccs2)C(C(=O)NC(C)(C)C)c2cc(OC)c(OC)c(OC)c2)cc1 (stereo unspecified)	2	4	109	i	0.82	-0.2	112
CCOC(=O)c1c[nH]c2c(C)ccc(Cl)c2c1=O	10	10	35	i	0.98	·	107
CCOc1ccccc1NC(=O)c1nc[nH]c1C(=O)Nc1ccccc1OCC	-4	·	·	i	0.8	-1.5	97

Some entries already given, showing only PKD1 kinase inh, HSV augment and HSV augment primary fold.
smiles,PKD1 kinase inh,HSV augment,HSV augment primary fold
O=C(O)c1ccc(-n2cccc2/C=C2/NC(=O)N(c3ccccc3)C2=O)cc1,·,i,0.95
CCc1ccc(N(C(=O)CNC(=O)c2cccs2)C(C(=O)NC(C)(C)C)c2cc(OC)c(OC)c(OC)c2)cc1 (stereo unspecified),2,i,0.82
CCOC(=O)c1c[nH]c2c(C)ccc(Cl)c2c1=O,10,i,0.98

Looked up by structure from above, 5 records:
SMILES	PKD1 kinase inh	Insulin prom inh	Insulin prom inh cell count	HSV augment	HSV augment primary fold	GALR2 agonist	RGS16-Gao
Cc1ccc(C(=O)N2C(=O)C(c3ccccc3)Oc3ccccc32)cc1 (stereo unspecified)	·	·	·	i	1.1	·	86
CCCC(=O)Nc1nc(-c2ccc(Cl)s2)cs1	-3	·	·	i	1	·	95
COCCn1c(-c2ccccc2F)n[nH]c1=S	-7	25	96	i	1	-0.5	103
CC(C)C(=O)N1CCN(c2ccc(NC(=O)c3ccc4c(c3)OCCO4)cc2)CC1	-5	·	·	i	0.99	·	100
Cc1ccc(C)c(CN2C(=O)c3ccccc3S(=O)c3ccc(C(=O)N4CCN(c5ccccn5)CC4)cc32)c1 (stereo unspecified)	-11	-18	174	i	0.73	·	102

Looked up above:
Under Insulin prom inh cell count, `COc1ccccc1S(=O)(=O)CC(O)COc1ccc(F)cc1Cl` (stereo unspecified) is listed with 80
Under RGS16-Gao, `Cc1nc(Nc2ccc(Cl)cc2Cl)sc1C(=O)Nc1ccccc1` is listed with 97
Under PKD1 kinase inh, `COCCn1nnnc1C(c1cc2cc(C)ccc2[nH]c1=O)N1CCc2ccccc21` (stereo unspecified) is listed with 3
Under Insulin prom inh cell count, `COc1cc(Cn2c(-c3nonc3N)nc3ccccc32)ccc1C` is listed with 34
Under PKD1 kinase inh, `CCCC(=O)Nc1nc(-c2ccc(Cl)s2)cs1` is listed with -3

Next entries follow:
SMILES	PKD1 kinase inh	Insulin prom inh	Insulin prom inh cell count	HSV augment	HSV augment primary fold	GALR2 agonist	RGS16-Gao
COc1ccccc1C(=O)Nc1ccc(C(=O)c2ccccc2)cc1	-3	0	114	i	0.87	·	105
Cc1nc(NCCc2cnc[nH]2)c2oc3ccccc3c2n1	-1	·	·	i	1	-2.8	103
Cc1ccc(NC(=O)C2C(C(=O)O)C3C=CC2C32CC2)cc1 (stereo unspecified)	-4	11	96	i	0.79	-0.1	-27
CCCCn1nnc(NC(=O)c2ccc(-c3ccccc3[N+](=O)[O-])o2)n1	-3	-2	119	i	0.82	·	100
CC(=O)N(C(C)=O)n1c(/C=C/c2cccc([N+](=O)[O-])c2)nc2ccccc2c1=O	-1	14	74	i	0.97	·	98
O=C(/C=C/c1ccc(Cl)cc1)N1CCN(c2ccc([N+](=O)[O-])c(N3CCOCC3)c2)CC1	-6	·	·	i	0.9	-0.4	108
COc1ccc(C2=NN(C(=O)CN3CCCCC3)C(c3ccc(OC)cc3)C2)cc1 (stereo unspecified)	·	·	·	i	0.92	·	101
CC(C)(/C=N/O)/[N+]([O-])=C/c1ccco1	-20	-7	79	i	0.93	-3.5	102
CC(C)OP(=O)(CCP(=O)(OC(C)C)OC(C)C)OC(C)C	·	·	·	i	0.97	·	103
CCOc1cc(N2CCOCC2)c(OCC)cc1NC(=O)Cc1cccc(OC)c1	-3	-12	88	i	0.92	-2.0	98
CCOC(=O)c1cc2sccc2n1Cc1ccccc1	0	0	118	i	1.2	0.6	110
O=C1/C(=C\c2ccc(-c3ccccc3[N+](=O)[O-])o2)C(c2ccccc2)=NN1c1ccccc1	0	33	139	i	0.9	-2.0	-1.8*
O=C(Nc1nnc(-c2ccccc2SCc2ccccc2)s1)Nc1ccccc1F	-3	-7	62	i	0.79	-1.0	101
O=C(CSc1ncccn1)NC1CCCc2ccccc21 (stereo unspecified)	-7	-36	202	i	0.97	·	124
CCOC(=O)c1cc([N+](=O)[O-])sc1NC(=O)CC	-4	·	·	i	1	·	93
COc1ccc(N(CC(=O)NC2CCCC2)C(=O)Cn2nnc(-c3ccc(C)cc3)n2)cc1OC	-9	·	·	i	0.83	-1.0	97
c1ccc(Cc2nn3c(Cn4cnc5ccccc54)nnc3s2)cc1	3	i	48	i	1.1	-0.7	80
CN(C)c1ccc(C(c2nnnn2C(C)(C)C)N2CCc3ccccc3C2)cc1 (stereo unspecified)	-4	-38	105	i	0.98	-2.2	93
COc1ccc(C(=O)Nc2cccc(C(=O)N3CCCC3)c2)cc1	-9	-27	114	i	0.97	-2.0	124
COC(=O)c1c(NC(=O)C(C)C)sc2c1C(C(=O)OC)CC2 (stereo unspecified)	0	-25	98	i	0.91	-0.1	100
COc1cc(/C=N/N(C)C)cc(Br)c1O	·	·	·	i	1.1	·	88
Cc1nc2ccccn2c1C(=O)NCc1ccc2c(c1)OCO2	1	·	·	i	0.97	-1.3	90
CC1=N/C(=C/c2cccnc2)C(=O)O1	0	·	·	i	1	·	100
CCN(c1cccc(C)c1)c1ncnc2nc[nH]c12	9	·	·	i	0.77	-0.8	102
COc1cccc2c1OCC(C(=O)OCc1cccnc1)=C2	10	0	81	i	0.88	·	101
CCc1ccc(C(=O)COC(=O)C(CCSC)NC(=O)C23CC4CC(CC(C4)C2)C3)cc1 (stereo unspecified)	-14	24	111	i	1	-0.8	97
O=C1CC(c2ccccc2)C(C(=O)Nc2ccccc2F)N1 (stereo unspecified)	1	30	130	·	·	-0.5	106
O=C(NCCc1c[nH]c2ccccc12)/C(=C/c1cccnc1)NC(=O)c1ccco1	-6	·	·	i	1	·	105
O=C(C1CCN(C2CC(=O)N(c3ccc(F)cc3)C2=O)CC1)N1CCOCC1 (stereo unspecified)	-1	-162	137	i	0.96	-2.2	106
CCN1CCCC1CNC(=O)C(=O)NC(C)C (stereo unspecified)	5	8	150	i	0.99	·	108
CCOC(=O)Cn1c(=O)c(-c2cc(Br)ccc2N)nc2ccccc21	·	·	·	?	·	·	96
COc1ccc2nc(N(CCN(C)C)C(=O)/C=C/c3cccs3)sc2c1	7	·	·	i	0.74	·	102
COC(=O)c1cc(Br)c(=O)n(Cc2ccc(OC)c(OC)c2)c1	-2	·	·	i	0.94	-3.5	102

High-throughput results as filed in PubChem BioAssay.
